# Source: PubChem (Fisher Drug Discovery Resource Center)
# NPYLR7 ag: activates Aedes aegypti NPYLR7 receptor. 270,000 tested, 0.15% active. activation, % at 10 µM. HEK293T NPYLR7/Galpha15, GCaMP6s calcium fluorescence; in the data active means activation above about 40%;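 further: 0% = vehicle and 100% = reference agonist at the receptor; some compounds past the cut are filed as inactive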
# NPYLR7 ag max-min: further read-out of NPYLR7 ag, marked with its call; activation, %; measured here: Max-Min RFU normalised activation; some inactives read as strong as hits;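 span of the calcium signal over five minutes; 0% = vehicle and 100% = native peptide agonist; compound fluorescence can raise it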
# Active calls of the source: *.
SMILES,NPYLR7 ag,NPYLR7 ag max-min
CC(C)OC(=O)CSc1ccc(S(=O)(=O)C(F)(F)F)cc1[N+](=O)[O-],-2.9,-5.8
Cc1nn2c(=O)[nH]c(SCC(N)=O)nc2c1-c1ccccc1,15.6,10.7
CC(=O)Oc1ccc(Cn2c(C)c(C(=O)NCc3ccc4c(c3)OCCO4)sc2=O)cc1,-5.3,-5.2
COc1ncccc1C(=O)N1CCC(n2nccc2NC(=O)CC(C)C)CC1,-4.1,-2.9
COc1ccccc1C1CC(c2ccc(Br)cc2)=NN1S(C)(=O)=O (configuration not stated),7.3,12.0
Cc1cccc(CC2SC(=Nc3ccc(Br)cc3)NC2=O)c1 (configuration not stated),-4.6,-7.3
c1ccc(-c2nc3c(cnn3Cc3cccs3)[nH]2)cc1,12.3,12.1
Cn1ccnc1CN(C(=O)c1ccccc1-c1ncn[nH]1)C1CC1,29.9,15.3
O=C(c1cccs1)N1CCN(c2ccc([N+](=O)[O-])c(N3CCCCC3)c2)CC1,0.8,0.6
Cc1sc2[nH]c(=S)n(C(C)C)c(=O)c2c1C,-0.9,1.8
COCCN1CCCC[C@]2(C[C@H](CO)[C@H](c3ccccc3)N2C(=O)OCC(C)C)C1=O,5.1,11.1
Cc1cc(C)nc(CCNc2nccc(CCC(F)(F)F)n2)n1,24.7,15.0
O=C(C1CCC1)N1CCCC(OCCOc2ccccc2)C1 (configuration not stated),17.2,19.1
CCOc1cccc(/C=C2/SC(=Nc3ccccc3OC)C(C(=O)OC)=C2O)c1O,-4.4,2.6
Cc1ccc2nc(-c3cccc(F)c3)c(NCc3ccccc3)n2c1,3.6,3.0
NC(=O)CSc1nnc(-c2c[nH]c3ccccc23)n1CC1CCCO1 (configuration not stated),3.1,5.3
COc1cccc(C(=O)Nc2c(C)nc3ccccn3c2=O)c1OC,-3.5,-2.8
Cc1cc(C)c(C)c(S(=O)(=O)NNC(=O)c2nccc3ccccc23)c1C,-19.0,-20.7
Cc1ccc(S(=O)(=O)NC2=NS(=O)(=O)c3ccccc32)cc1,0.3,-2.3
CCOC(=O)c1cc(-c2ccccc2C)n(-c2ccc(C(=O)NCCC#N)cc2)n1,3.3,-2.6
C=CCn1c(COc2ccccc2F)n[nH]c1=S,0.7,-0.3
COc1cccc(CSc2nnc(CNC(=O)C3C[C@H]3c3ccccc3)n2-c2ccc(Cl)cc2Cl)c1 (some centres not stated),9.9,13.5
Cc1nc2c(c(N3CCCC3)n1)CN(C(=O)Nc1cc(C(F)(F)F)cc(C(F)(F)F)c1)CC2,-10.0,-13.7
CSc1cccc(NC(=O)Cn2c(=CC(=O)C(C)(C)C)sc(=Cc3ccsc3)c2=O)c1,-4.4,-11.3
N#CCSc1ccc(S(=O)(=O)N2CCOCC2)cn1,0.0,27.4
COc1ccc(NC2CCCN(Cc3noc(C4CC4)n3)C2)cc1OC (configuration not stated),8.0,5.2
CCCOc1ccc(S(=O)(=O)N2CCN(c3ccccc3C)CC2)cc1C,-2.5,-7.4
CC(=O)c1cc(CCC(=O)Nc2nc(CC(N)=O)cs2)oc1C,11.9,3.5
CCN1CCN(C(=O)c2ccc(Nc3c(Oc4ccc5c(c4)OCO5)cnn(C)c3=O)cc2)CC1,-6.3,5.7
N#Cc1ccccc1COC1C[C@](OCc2ccc(F)cc2)(C(=O)NCCN2CCCC2)C[C@@H](O)[C@H]1O (some centres not stated),-6.2,0.8
Cc1ccc(CNC(=O)C2CCCN(C3CCN(C(=O)C4CC4)CC3)C2)s1 (configuration not stated),21.0,11.2
CC(CNC(=O)N1CCCC(N(C)C)C1)Cc1cccs1 (configuration not stated),3.2,3.2
COc1cc(Nc2ccc(S(=O)(=O)C(F)(F)F)cc2[N+](=O)[O-])cc(OC)c1,13.3,12.8
Cc1cc(C(=O)N2CCCCC2C(C)NC(=O)OC(C)(C)C)sc1C (configuration not stated),12.4,9.5
O=c1c2cccc3cccc(c32)c2nc3ccc4ccccc4c3n12,-1.6,-3.1
O=C1CC(c2ccc3c(c2)OCO3)CC2=Nc3ccccc3NC(c3cc4c(cc3Br)OCO4)C12 (configuration not stated),5.5,1.6
COCCNC(=O)[C@@]1(OCc2cccc(OC)c2)CC(OCc2cccc(F)c2F)[C@@H]2OC(C)(C)O[C@@H]2C1 (some centres not stated),-6.7,6.5
CCN(CC)CCn1c2c(c(SCC(=O)Nc3cccc(C(C)=O)c3)nc1=O)CCCC2,-0.6,4.6
CCSc1ncc(CN2CCN(c3cccc(C(C)C)n3)CC2)cn1,8.7,-10.3
O=C(Nc1ccccc1N1CCOCC1)[C@@H]1O[C@H](CO)[C@H](O)[C@H](O)[C@H]1O,4.4,1.6
CC(NC(=O)c1ccc(Cl)cc1)C(=O)N(C)C(C)c1ccccn1 (configuration not stated),6.6,2.3
COc1cccc(CC2(CO)CCCN(Cc3nc4ccccc4n3C)C2)c1 (configuration not stated),11.7,10.9
COc1ccccc1NC(=O)Cn1nc(C2CCCN(S(C)(=O)=O)C2)n(C)c1=O (configuration not stated),-4.4,1.7
C[C@@]12C(=O)N(CC3CC3)c3ccccc3[C@@H]1[C@@H](C(N)=O)CN2C(=O)c1ccccc1,2.6,17.2
COC(=O)c1ccc(COC(CN2CCN(S(=O)(=O)c3cc(C)ccc3OC)CC2)c2cccc(OC)c2)cc1 (configuration not stated),-2.6,7.2
O=C(CCCn1cc([N+](=O)[O-])cn1)n1cccn1,1.5,-1.6
CN1C(=CP(=O)(C2CCCCC2)N2CCOCC2)C(C)(C)c2ccccc21 (configuration not stated),5.3,3.4
COc1ccc(CC(=O)Nc2c(C)nc3sccn3c2=O)cc1OC,10.3,0.3
CCN(CC)c1ccc(NC(=O)CCl)cc1,-3.4,-8.8
COc1ccc(S(=O)(=O)N2CCC(NS(=O)(=O)c3cc(Cl)cc(Cl)c3)CC2)cc1,4.8,9.1
COc1ccc(-c2n[nH]c(=O)c3ccccc23)cc1Cl,-4.4,-4.8
N#CC(=Cc1ccc2c(c1)OCCO2)C(=O)Nc1ccc(SC(F)F)cc1,21.6,8.8
COc1ccc(OC)c(C2SC(C)C(=O)N2CCC(=O)NCCN(C)C)c1 (configuration not stated),18.7,32.1
Cc1nn(-c2ccc(C(F)(F)F)cc2)c(C)c1C(=O)N[C@@]1(c2ccccc2)CCCC[C@H]1O,2.9,5.7
COc1cc(OC)c(OC)cc1CN1CCC(CCC(=O)NCC2CCCO2)CC1 (configuration not stated),-1.7,-6.5
COc1nc(OC)nc(-c2ccc(C)cc2-n2cccn2)n1,2.3,23.0
COc1cc(-c2cc(C(=O)O)c3[nH]c(-c4ccccc4)nc3n2)ccc1O,16.1,8.9
CN(CC1Cc2ccccc2O1)C(=O)c1cn(Cc2ccccc2F)nn1 (configuration not stated),18.6,9.5
CN(C)C(=O)C1CN(C(=O)c2ccc(Oc3ccccc3)cc2)c2ccccc2O1 (configuration not stated),12.7,13.9
O=C(NCC(=O)N1CCCc2sccc2C1)OCC(F)(F)F,-3.2,-7.4
# Additional records
SMILES,NPYLR7 ag,NPYLR7 ag max-min
Cc1nc2ccc(C(=O)c3cc(Cl)ccc3O)cn2c(=O)c1CCC(=O)O,7.2,4.6
CCN(Cc1nc2ccccc2c(=O)[nH]1)c1ncnc2c1cnn2C,5.1,3.4
C=CCN(CC(O)COc1ccccc1)CC1CC(c2ccccc2)=NO1 (configuration not stated),-1.2,-1.5
Cc1cccc(Nc2cc(C)nc3c4c(C)cc(C)nc4nn23)c1,-0.6,33.4
CCCCc1ccc(C(=O)Nc2c(-c3ccc(C)cc3)nc3cc(C)ccn23)cc1,-1.2,2.3
O=C(c1cc2nc(-c3ccco3)cc(C(F)(F)F)n2n1)N1CCN(c2ccc(F)cc2)CC1,13.6,17.7
O=C(c1ccc(Cl)cc1)N1CCOC(COCc2ccccc2F)C1 (configuration not stated),8.8,4.5
CN1CCc2c(C#N)c(N3CCCCC3)nc(N3CCCC3)c2C1,-2.2,-2.7
CC1CN(Cc2ccccc2)CCC1NC(=O)C1CC2CCC1O2 (configuration not stated),-19.9,-22.0
COc1ccc(C(NC(=O)C2CCN(CCOc3ccc(Cl)cc3)CC2)c2ccco2)cc1 (configuration not stated),17.3,5.5
O=S(=O)(c1ccc2c(c1)nc(SCc1ccccc1Br)n2CCCN1CCOCC1)N1CCOCC1,21.8,15.8
CN(CCNC(=O)c1cccnc1)S(C)(=O)=O,18.3,3.1
Ic1ccc(N2CCN(Cc3c[nH]c4ncccc34)CC2)cc1,0.7,14.2
Cc1ccc(-n2nc(C(=O)NCc3cccnc3)c(=O)n(Cc3cccc(Cl)c3)c2=O)cc1F,-3.5,4.8
COc1cc(-c2cc(C(F)(F)F)n3ncc(C(=O)Nc4ccc(Cl)cc4)c3n2)cc(OC)c1OC,11.6,10.6
COCCN(Cc1ccc(OC)cc1)c1c(C)nc2ccc(C(=O)N3CCN(C(=O)c4ccco4)CC3)cn12,-3.8,-11.1
CCOc1ccc2nc(NC(=O)Cn3nc(C(=O)N4CCOCC4)cc3C)sc2c1,-2.7,-3.9
O=[N+]([O-])c1ccc(CSc2ncnc3c2ncn3[C@@H]2O[C@H](CO)[C@H](O)C2O)cc1 (some centres not stated),5.8,-34.5
Cc1c(C(=O)NCCOc2ccccc2)cnc2c(-c3cccs3)cnn12,12.0,1.0
O=C(O)c1csc(S(=O)(=O)N2CCCc3cc(Cl)ccc32)c1,-18.7,-19.3
CSc1nc2c(c(=O)[nH]c(=O)n2C)n1Cc1cccc(C)c1,-18.3,-18.4
CC(C)c1nccc(CN(Cc2ccncc2)Cc2ccc(F)cc2)n1,-3.0,-3.7
CCN1C(=O)CN(CN(Cc2cccc(F)c2)C2CC2)C1=O,1.5,0.1
CCc1nn(-c2ccccc2)c(NC(=O)c2cccc(=O)[nH]2)c1C,8.1,-1.6
CCC(CC)n1nc(C)cc1NC(=O)Cc1cnc2c(C)cccn12,1.4,30.2
CCCCCCc1ccc(C(=O)N(Cc2cccc(OS(=O)(=O)CC)c2)C(C)CC)cc1 (configuration not stated),-2.5,4.1
C=CCn1c(SCC(=O)NCC2CCCO2)nnc1-c1ccccc1F (configuration not stated),2.5,10.2
CCCC/C(C)=N\n1c(-c2ccco2)csc1=NC,-0.2,-2.4
O=C(Cc1cccs1)Nc1nccs1,-3.1,-3.0
O=C(c1ccc(CC2CCCNC2)cc1)N1CCC(Nc2ccccn2)CC1 (configuration not stated),2.4,-1.4
CCn1c(SCC(N)=O)nnc1-c1ccc(Cl)cc1Cl,1.1,-3.4
CC(C)(C)OC(=O)N1CCN(C2CCOCC2)CC1,-9.4,-13.9
CCc1ccc(C(=O)N(Cc2nc3cc(C)ccc3o2)Cc2cc(F)ccc2F)cc1,2.7,2.7
CCN(C)C(=O)c1csc(N2CCN(CCOC)C2=O)n1,-2.3,-2.6
Cc1nc2c(OCC3COc4ccccc4O3)cccn2c1N(C)Cc1cccs1 (configuration not stated),8.0,4.3
Cc1cc(C)n2nc(SCc3nnc(C)o3)nc2n1,10.9,9.1
CNC(=O)C1CCN(C(=O)C2CC2C)CC1 (configuration not stated),-0.3,-1.8
COc1ccc(-n2c(SCc3ccc(C(=O)N4CCOCC4)cc3)nnc2-c2ccc(C)cc2)cc1,-4.2,-0.7
Cc1ccc(N2CCn3c2nc2c3c(=O)n(C)c(=O)n2C)cc1Cl,0.8,-3.4
CCNC(=O)C1(C)CCCN1C(=O)c1ccc2ccccc2c1 (configuration not stated),2.4,-1.0
CCCNC(=O)c1cnn(-c2cc(C)cc(C)c2)c1-n1cccc1,-6.2,-7.5
Cc1ccc(-n2ncc3c(C)nn(CC(=O)NCCc4ccccc4)c(=O)c32)c(C)c1,3.8,1.1
COc1ccc(OC)c(-n2c(-c3ccccc3)cc(C(=O)NCCN3CCCCC3)c2C)c1,-11.7,-7.6
CCCCNC(=O)C1(C)CCN1C(=O)c1cccc(C)c1C (configuration not stated),6.0,3.0
C1=CC[C@H]2CN(Cc3ccc(Cn4cccn4)cc3)C[C@H]2C1,3.1,2.2
COc1cc2oc(=O)c3c4c(cc5ccc(c1CCN(C)C)c2c53)OCO4,2.2,1.6
COc1cc(NC(=O)C2(c3ccccc3)CC2)c(OC)cc1Cl,0.4,-1.1
CCn1cc(S(=O)(=O)Nc2sc(C(=O)OC)cc2Br)cn1,-0.9,-1.0
O=C(C1CCN(S(=O)(=O)c2cccs2)CC1)N1CCN(c2ccccc2Cl)CC1,-0.1,-1.3

# Compounds shown so far that have a Cl atom:
SMILES,NPYLR7 ag,NPYLR7 ag max-min
COc1cccc(CSc2nnc(CNC(=O)C3C[C@H]3c3ccccc3)n2-c2ccc(Cl)cc2Cl)c1 (some centres not stated),9.9,13.5
CC(NC(=O)c1ccc(Cl)cc1)C(=O)N(C)C(C)c1ccccn1 (configuration not stated),6.6,2.3
CCN(CC)c1ccc(NC(=O)CCl)cc1,-3.4,-8.8
COc1ccc(S(=O)(=O)N2CCC(NS(=O)(=O)c3cc(Cl)cc(Cl)c3)CC2)cc1,4.8,9.1
COc1ccc(-c2n[nH]c(=O)c3ccccc23)cc1Cl,-4.4,-4.8
Cc1nc2ccc(C(=O)c3cc(Cl)ccc3O)cn2c(=O)c1CCC(=O)O,7.2,4.6
O=C(c1ccc(Cl)cc1)N1CCOC(COCc2ccccc2F)C1 (configuration not stated),8.8,4.5
COc1ccc(C(NC(=O)C2CCN(CCOc3ccc(Cl)cc3)CC2)c2ccco2)cc1 (configuration not stated),17.3,5.5
Cc1ccc(-n2nc(C(=O)NCc3cccnc3)c(=O)n(Cc3cccc(Cl)c3)c2=O)cc1F,-3.5,4.8
COc1cc(-c2cc(C(F)(F)F)n3ncc(C(=O)Nc4ccc(Cl)cc4)c3n2)cc(OC)c1OC,11.6,10.6
O=C(O)c1csc(S(=O)(=O)N2CCCc3cc(Cl)ccc32)c1,-18.7,-19.3
CCn1c(SCC(N)=O)nnc1-c1ccc(Cl)cc1Cl,1.1,-3.4
Cc1ccc(N2CCn3c2nc2c3c(=O)n(C)c(=O)n2C)cc1Cl,0.8,-3.4
COc1cc(NC(=O)C2(c3ccccc3)CC2)c(OC)cc1Cl,0.4,-1.1
O=C(C1CCN(S(=O)(=O)c2cccs2)CC1)N1CCN(c2ccccc2Cl)CC1,-0.1,-1.3

# Quoted from the listing.
# O=C(C1CCN(S(=O)(=O)c2cccs2)CC1)N1CCN(c2ccccc2Cl)CC1 in NPYLR7 ag = -0.1
# COc1cc2oc(=O)c3c4c(cc5ccc(c1CCN(C)C)c2c53)OCO4 in NPYLR7 ag = 2.2

# These rows are one share of the data; count on the stated rates, not on these rows.
